# Assay outcomes as filed in PubChem BioAssay.
# HIV Env fusion: inhibitors of HIV Env-mediated cell fusion; HeLa-JRFL Env/CEM21 cell fusion, luciferase; inhibition, % at 12.3 µM; 360,000 compounds, 1.1% hits;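 active means mean replicate inhibition score of at least 50 and every replicate individually at or above 50; inconclusive means only one of the two criteria met; inactive means mean below 50 and not all replicates reaching 50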;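 further: 0% = plate neutral controls and 100% = maraviroc near 300 nM; one replicate is shown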
# Starred values were filed as active, the others as inactive; ? = inconclusive; [ ] = another dose, or the depositor's remark.
> C[C@H]1CN([C@@H](C)CO)C(=O)Cc2cc(NS(=O)(=O)c3ccccc3)ccc2O[C@H]1CN(C)C(=O)Nc1ccc2c(c1)OCO2
- HIV Env fusion = 5.1[16.7 µM]

> O=C(C[C@@H]1C=C[C@@H](NC(=O)Cc2cccnc2)[C@@H](CO)O1)Nc1ccccc1
- HIV Env fusion = -61.7[16.7 µM]

> CO[C@@H]1CN(C)C(=O)c2ccc(NC(=O)C3CCOCC3)cc2OC[C@H](C)N(C(=O)c2ccccc2)C[C@H]1C
- HIV Env fusion = -12.8[16.7 µM]

> COc1ccccc1CNC(=O)C[C@H]1CC[C@@H]2[C@H](COC[C@@H](O)CN2Cc2ccc3c(c2)OCO3)O1
- HIV Env fusion = -11.2[16.7 µM]

> CC=Cc1ccc2n(c1=O)C[C@H]1[C@H](CO)[C@@H](C(=O)NC3CCC3)N(Cc3ccncc3)[C@@H]21 (mixture of isomers)
- HIV Env fusion = -12.2[16.7 µM]

> COc1ccc2c3c(n(C)c2c1)[C@@H](CO)N(C(=O)Nc1ccc(F)cc1)CC31CCN(Cc2cccc(F)c2)CC1
- HIV Env fusion = 82.1*[16.7 µM]

> Cc1ccc(-c2ccccc2[C@H]2[C@@H](C#N)N(S(C)(=O)=O)[C@@H]2CO)cc1
- HIV Env fusion = 48.0[16.7 µM]

> COc1ccc(CN2CC3(CN(C(=O)Nc4cccc(F)c4)C3)c3c([nH]c4cc(OC)ccc34)[C@H]2CO)cc1
- HIV Env fusion = -22.2[16.7 µM]

> CN(C)C(=O)C[C@H]1CC[C@H]2[C@H](COc3ccc(NC(=O)c4ccc(F)cc4)cc3C(=O)N2C)O1
- HIV Env fusion = -6.7[16.7 µM]

> CN1CCN(C(=O)C[C@@H]2CC[C@H]3[C@@H](COC[C@H](O)CN3C(=O)Nc3ccc(F)cc3)O2)CC1
- HIV Env fusion = 25.8[16.7 µM]

> C[C@@H]1CN([C@H](C)CO)C(=O)c2ccccc2-c2ccccc2CO[C@@H]1CN(C)Cc1cccc(F)c1
- HIV Env fusion = 3.6[16.7 µM]

> CCC(=O)Nc1ccc2c(c1)OC[C@@H](C)N(CC1CCCCC1)C[C@H](C)[C@H](OC)CN(C)C2=O
- HIV Env fusion = -3.3[16.7 µM]

> O=C(NC[C@@H]1CC[C@H]2[C@H](CN2C(=O)Cc2ccncc2)O1)C1CCOCC1
- HIV Env fusion = -11.2[16.7 µM]

> CO[C@@H]1CN(C)C(=O)c2ccc(NC(=O)C3CCCC3)cc2OC[C@@H](C)N(S(=O)(=O)c2ccc(Cl)cc2)C[C@H]1C
- HIV Env fusion = -6.6[16.7 µM]

> CO[C@H]1CN(C)C(=O)c2cc(NC(C)=O)ccc2OC[C@@H](C)N(C(=O)c2ccc(F)cc2)C[C@H]1C
- HIV Env fusion = 6.6[16.7 µM]

> CCOC(=O)CN1C(=O)[C@]2(OCCC=C[C@H]2C)c2ccccc21
- HIV Env fusion = -3.6

> CO[C@@H]1CN(C)C(=O)c2cc(NS(=O)(=O)Cc3ccccc3)ccc2OC[C@@H](C)NC[C@H]1C
- HIV Env fusion = -11.1[16.7 µM]

> C[C@H](CO)N1C[C@H](C)[C@@H](CN(C)Cc2ccc(Oc3ccccc3)cc2)Oc2c(NC(=O)c3cnccn3)cccc2C1=O
- HIV Env fusion = -3.4[16.7 µM]

> O=C(C[C@@H]1CC[C@H]2[C@@H](COC[C@@H](O)CN2Cc2nccs2)O1)NCc1ccc(F)cc1
- HIV Env fusion = 1.0[16.7 µM]

> COC(=O)CCN1CCSCCS1(=O)=O
- HIV Env fusion = -60.5

> COC(=O)C[C@H]1CC[C@H](NS(=O)(=O)c2cn(C)cn2)[C@@H](CO)O1
- HIV Env fusion = -23.7

> CO[C@H]1CC[C@@H]2CCN(C)C(=O)C[C@@H](c3ccccc3)CN(C)C(=O)c3cccc(C#N)c3OC[C@@H]1O2
- HIV Env fusion = 11.8[16.7 µM]

> C[C@H](O)C#Cc1cnc2c(c1)C(=O)N([C@@H](C)CO)C[C@H](C)[C@H](CN(C)CC1CCOCC1)O2
- HIV Env fusion = -4.0[16.7 µM]

> CCC(=O)Nc1ccc2c(c1)C(=O)N(C)C[C@@H](OC)[C@H](C)CN(Cc1ccncc1)[C@@H](C)CO2
- HIV Env fusion = 10.4[16.7 µM]

> COc1ccccc1NC(=O)Nc1ccc2c(c1)C(=O)N(C)C[C@H](OC)[C@@H](C)CN(C)[C@@H](C)CO2
- HIV Env fusion = -4.6[16.7 µM]

> CCCN1[C@H](C(=O)Nc2nccs2)[C@@H](CO)[C@@H]2Cn3c(ccc(-c4ccccc4OC)c3=O)[C@@H]21
- HIV Env fusion = 13.8[16.7 µM]

> CO[C@@H](CN(C)S(=O)(=O)c1cccc(Cl)c1)[C@H](C)CN([C@@H](C)CO)S(=O)(=O)c1ccc(Cl)cc1
- HIV Env fusion = 33.5[16.7 µM]

> COc1ccc2c3c(n(C)c2c1)[C@@H](CO)N(C(=O)Nc1ccc(F)cc1)CC31CCN(C(=O)c2cccnc2)CC1
- HIV Env fusion = 4.6[16.7 µM]

> Cc1ccccc1S(=O)(=O)NCC[C@@H]1CC[C@H](NS(=O)(=O)c2ccccc2C)[C@H](CO)O1
- HIV Env fusion = 3.7[16.7 µM]

> Cc1cc2c(nc1C)CCCN2C
- HIV Env fusion = ?

> CS(=O)(=O)Nc1ccc2c(c1)[C@@H]1C[C@H](CC(=O)NCc3ccc(Cl)cc3)O[C@H](CO)[C@@H]1O2
- HIV Env fusion = 7.7[16.7 µM]

> COc1ccc(NC(=O)Nc2ccc3c(c2)[C@H]2C[C@@H](CC(=O)NCc4ccccn4)O[C@@H](CO)[C@H]2O3)cc1
- HIV Env fusion = -4.6[16.7 µM]

> COc1cccc(C(=O)Nc2ccc3c(c2)C(=O)N(C)C[C@H](OC)[C@H](C)CN(CCc2ccccc2)[C@@H](C)CO3)c1
- HIV Env fusion = 31.0[16.7 µM]

> CN(C)CCCNC(=O)C[C@@H]1CC[C@H]2[C@H](COc3ccc(NS(C)(=O)=O)cc3C(=O)N2C)O1
- HIV Env fusion = -1.4[16.7 µM]

> CC(C)NC(=O)Nc1ccc2c(c1)C(=O)N([C@@H](C)CO)C[C@H](C)[C@@H](CN(C)C(=O)CCCN(C)C)OCCCC[C@@H](C)O2
- HIV Env fusion = -5.0[16.7 µM]

> C[C@@H]1CN([C@@H](C)CO)C(=O)c2c(c3ccccc3n2C)-c2ccccc2CO[C@H]1CN(C)Cc1cccc(C(F)(F)F)c1
- HIV Env fusion = 57.4*[16.7 µM]

> CC(C)c1[nH]nc2c1C(c1ccccc1)NC2=O (stereo not given)
- HIV Env fusion = 8.7

> O=C(N[C@H]1C=C[C@H](CC(=O)N2CCN(c3ccccc3)CC2)O[C@H]1CO)c1ccncc1
- HIV Env fusion = 29.4[16.7 µM]

> C[C@@H]1CN([C@H](C)CO)C(=O)Cc2cc(NS(C)(=O)=O)ccc2O[C@H]1CN(C)C(=O)Nc1cccc2ccccc12
- HIV Env fusion = 13.7[16.7 µM]

> C[C@H](CO)N1C[C@H](C)[C@H](CN(C)C(=O)NC2CCCCC2)OCc2cn(nn2)CCCC1=O
- HIV Env fusion = -3.3[16.7 µM]

> CO[C@H]1CN(C)C(=O)c2cc(NC(=O)Nc3ccc(C(F)(F)F)cc3)ccc2OC[C@H](C)NC[C@H]1C
- HIV Env fusion = 12.9[16.7 µM]

> CCCNC(=O)[C@@H]1[C@@H](CO)[C@@H]2Cn3c(ccc(/C=C/c4ccccc4)c3=O)[C@H]1N2C(=O)c1ccncc1
- HIV Env fusion = 4.0[16.7 µM]

> N#C[C@H]1[C@H](c2ccc(C3=CCCCC3)cc2)[C@H](CO)N1C(=O)NC1CCCC1
- HIV Env fusion = 26.0[16.7 µM]

> CCC(=O)Nc1ccc2c(c1)OC[C@@H](C)N(C(=O)c1ccc(F)cc1)C[C@H](C)[C@@H](OC)CN(C)C2=O
- HIV Env fusion = 5.1[16.7 µM]

> COc1ccc(C#Cc2ccc3c(c2)O[C@H](CN(C)C(=O)CN2CCOCC2)[C@@H](C)CN([C@@H](C)CO)S3(=O)=O)cc1
- HIV Env fusion = 22.8[16.7 µM]

> CC(=O)N1C[C@@H](CO)[C@@H](N(C)C(=O)Nc2cccc3ccccc23)C[C@H]1c1ccccc1
- HIV Env fusion = 1.8

> C[C@@H]1CN([C@@H](C)CO)C(=O)c2cc(NC(=O)c3ccncc3)ccc2O[C@@H](C)CCCCO[C@H]1CN(C)Cc1ccccc1
- HIV Env fusion = -1.6[16.7 µM]

> C[C@@H]1CN([C@@H](C)CO)S(=O)(=O)c2ccc(C#CC3CCCC3)cc2O[C@H]1CN(C)C(=O)c1cccc(F)c1
- HIV Env fusion = 35.7[16.7 µM]

> C[C@H](CO)N1C[C@H](C)[C@H](CN(C)S(C)(=O)=O)Oc2ccc(NC(=O)Nc3ccc(C(F)(F)F)cc3)cc2CC1=O
- HIV Env fusion = 8.3[16.7 µM]

> CNC[C@@H]1OCCCC[C@H](C)Oc2ccc(N(C)C)cc2C(=O)N([C@@H](C)CO)C[C@H]1C
- HIV Env fusion = -5.0[16.7 µM]

> O=C(C[C@@H]1CC[C@@H]2[C@H](COC[C@H](O)CN2Cc2cccc(C(F)(F)F)c2)O1)NCCc1ccncc1
- HIV Env fusion = 10.9[16.7 µM]

> C[C@@H]1CCCCO[C@@H](CN(C)Cc2ccccc2)[C@@H](C)CN([C@@H](C)CO)C(=O)c2cc(NC(=O)c3ccncc3)ccc2O1
- HIV Env fusion = 5.0[16.7 µM]

> CN1C(=O)c2cc(NS(C)(=O)=O)ccc2OC[C@@H]2O[C@@H](CC(=O)N3CCOCC3)CC[C@H]21
- HIV Env fusion = -6.4[16.7 µM]

> COc1ccc2c3c(n(C)c2c1)[C@@H](CO)N(S(=O)(=O)c1ccccc1)CC31CCN(C)CC1
- HIV Env fusion = -13.8[16.7 µM]

> COc1cc(CNc2cccc3c2S(=O)(=O)N([C@H](C)c2ccccc2)C[C@@H](COCc2ccccc2)O3)cc(OC)c1OC
- HIV Env fusion = 0.1

> COC(=O)C1=C(C)N(Cc2cccc(C(F)(F)F)c2)C(=NCc2cc(OC)c(OC)c(OC)c2)NC1c1ccc(Cl)cc1 (stereo not given)
- HIV Env fusion = 5.7

> CN1CCN(C(=O)C[C@H]2C[C@H]3c4cc(NS(C)(=O)=O)ccc4O[C@H]3[C@@H](CO)O2)CC1
- HIV Env fusion = -57.7[16.7 µM]

> C[C@@H](NC(=O)C[C@@H]1C[C@@H]2c3cc(NC(=O)c4ccc5c(c4)OCO5)ccc3O[C@@H]2[C@H](CO)O1)c1ccccc1
- HIV Env fusion = 2.4[16.7 µM]

> C[C@H]1CN([C@@H](C)CO)C(=O)c2c(c3ccccc3n2C)-c2ccccc2CO[C@@H]1CN(C)C(=O)CCN(C)C
- HIV Env fusion = -10.0[16.7 µM]

> C[C@@H]1CN([C@@H](C)CO)C(=O)c2cc(NC(=O)CCN3CCOCC3)ccc2O[C@@H]1CN(C)Cc1ccc(C(F)(F)F)cc1
- HIV Env fusion = 7.2[16.7 µM]

# A draw from above in order of heavy-atom count, lowest first:
> N#C[C@H]1[C@H](c2ccc(C3=CCCCC3)cc2)[C@H](CO)N1C(=O)NC1CCCC1
- HIV Env fusion = 26.0[16.7 µM]

> CN1CCN(C(=O)C[C@H]2C[C@H]3c4cc(NS(C)(=O)=O)ccc4O[C@H]3[C@@H](CO)O2)CC1
- HIV Env fusion = -57.7[16.7 µM]

> CNC[C@@H]1OCCCC[C@H](C)Oc2ccc(N(C)C)cc2C(=O)N([C@@H](C)CO)C[C@H]1C
- HIV Env fusion = -5.0[16.7 µM]

> CN1C(=O)c2cc(NS(C)(=O)=O)ccc2OC[C@@H]2O[C@@H](CC(=O)N3CCOCC3)CC[C@H]21
- HIV Env fusion = -6.4[16.7 µM]

> C[C@H](CO)N1C[C@H](C)[C@H](CN(C)C(=O)NC2CCCCC2)OCc2cn(nn2)CCCC1=O
- HIV Env fusion = -3.3[16.7 µM]

> CCC(=O)Nc1ccc2c(c1)OC[C@@H](C)N(C(=O)c1ccc(F)cc1)C[C@H](C)[C@@H](OC)CN(C)C2=O
- HIV Env fusion = 5.1[16.7 µM]

> CCCNC(=O)[C@@H]1[C@@H](CO)[C@@H]2Cn3c(ccc(/C=C/c4ccccc4)c3=O)[C@H]1N2C(=O)c1ccncc1
- HIV Env fusion = 4.0[16.7 µM]

> C[C@@H]1CN([C@@H](C)CO)S(=O)(=O)c2ccc(C#CC3CCCC3)cc2O[C@H]1CN(C)C(=O)c1cccc(F)c1
- HIV Env fusion = 35.7[16.7 µM]

> C[C@H]1CN([C@@H](C)CO)C(=O)c2c(c3ccccc3n2C)-c2ccccc2CO[C@@H]1CN(C)C(=O)CCN(C)C
- HIV Env fusion = -10.0[16.7 µM]

> C[C@H](CO)N1C[C@H](C)[C@H](CN(C)S(C)(=O)=O)Oc2ccc(NC(=O)Nc3ccc(C(F)(F)F)cc3)cc2CC1=O
- HIV Env fusion = 8.3[16.7 µM]

> COc1ccc(C#Cc2ccc3c(c2)O[C@H](CN(C)C(=O)CN2CCOCC2)[C@@H](C)CN([C@@H](C)CO)S3(=O)=O)cc1
- HIV Env fusion = 22.8[16.7 µM]

> COC(=O)C1=C(C)N(Cc2cccc(C(F)(F)F)c2)C(=NCc2cc(OC)c(OC)c(OC)c2)NC1c1ccc(Cl)cc1 (stereo not given)
- HIV Env fusion = 5.7

> COc1cc(CNc2cccc3c2S(=O)(=O)N([C@H](C)c2ccccc2)C[C@@H](COCc2ccccc2)O3)cc(OC)c1OC
- HIV Env fusion = 0.1

# A portion of the library; the hit share may differ from the screen's.
